Cruzain inh Det – qHTS Assay for Promiscuous and Specific Inhibitors of Cruzain (with detergent); purified cruzain, Z-FR-AMC fluorescence, 0.01% Triton; Potency, µM, without a hit: max response, negative = inhibition, hits mostly inhibitors; 200,000 compounds, 0.43% hits;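 note: plate controls were neutral wells for no effect and buffer without enzyme for full effect; nearly all actives have a fitted effect of over 40% in size; top concentration of the series not given in the record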
Target sequence (P25779 123-467 limits assumed): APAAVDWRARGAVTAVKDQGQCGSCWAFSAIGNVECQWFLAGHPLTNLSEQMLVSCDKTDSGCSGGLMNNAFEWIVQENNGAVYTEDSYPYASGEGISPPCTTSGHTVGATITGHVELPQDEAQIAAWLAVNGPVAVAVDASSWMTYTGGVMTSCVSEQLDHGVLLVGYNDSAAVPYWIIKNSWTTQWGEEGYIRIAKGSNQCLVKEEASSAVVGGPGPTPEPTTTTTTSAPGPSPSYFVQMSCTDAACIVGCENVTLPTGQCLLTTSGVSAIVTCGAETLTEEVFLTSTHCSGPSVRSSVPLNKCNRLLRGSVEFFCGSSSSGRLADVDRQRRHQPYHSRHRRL
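Read-out: AMC fluorescence (360 nm excitation, 450 nm emission), four reads over 2 min, first-to-third difference used. Conditions: cruzain 1.5 nM, Z-FR-AMC 2 uM, pH 5.5 acetate, 5 mM DTT, 0.01% Triton X-100.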
LASV entry inh – qHTS for Inhibitors of binding or entry into cells for Lassa Virus. Lassa virus pseudotype entry inhibition, cell reporter; control for the full effect not named in the record. 300,000 compounds, 1.2% hits. AID 540256, 2011. Potency, µM (titrated, usually from 37.9 µM), for inactives: at the highest dose activity change, negative = inhibition, actives largely listed as inhibitors; active means well fitted inhibition curve with a large enough effect; inconclusive means small, poorly fitted or top-dose-only effect, or effect the other way; inactive means flat fitted curve, though single readings scatter; tested in HEK293 cells; note: % is set by controls: 0 for no effect and ±100 for the full control effect; nearly all actives have a fitted effect of over 50% in size; luciferase read-out
RE007 growth inh – qHTS Assay for Inhibitors of the HIV-1 protein Vpr | S. pombe RE007 Vpr strain, BacTiter-Glo ATP luminescence, 24 h; control for the full effect not named in the record | AID 651644, 2012 | Potency, µM (titrated, usually from 92.2 µM), for the others: at the top dose activity change, negative = less growth | 360,000 compounds, 0.21% hits; active = well fitted falling curve with a large enough effect; inconclusive = small, poorly fitted or top-dose-only effect; inactive = no such curve, though single readings can be large or run the other way;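 note: % is set by controls: 0 for no effect and ±100 for the full control effect; nearly all actives have a fitted effect of over 50% in size; the assay follows cell death caused by Vpr and the record does not say whether a fall means rescue or toxicity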
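Fission yeast strain RE007, carrying one chromosomally integrated HIV-1 vpr copy, was seeded at OD 0.01 in PMG+AL medium with 23 nL pinned compound. After 24 h at 30 °C and 99% humidity, viability was read by BacTiter-Glo luminescence.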
Marburg entry inh – qHTS for inhibitors of binding or entry into cells for Marburg Virus. Marburg virus pseudotyped entry inhibition, cell reporter; control for the full effect not named in the record; about a third of the inactives were read at about 46 µM. Potency, µM (series often up to 37.8 µM), without a hit: top-dose activity change, negative = inhibition, most hits filed as inhibitors. 300,000 compounds, 1.8% hits. AID 540276, 2011; active = well fitted inhibition curve with a large enough effect; inconclusive = small, poorly fitted or top-dose-only effect, or effect the other way; inactive = flat fitted curve, though single readings scatter; tested in HEK293 cells; about a fifth of its hits are not listed in these tables; note: % is set by controls: 0 for no effect and ±100 for the full control effect; luciferase read-out
SARS PLpro yeast – qHTS of Yeast-based Assay for SARS-CoV PLP; S. cerevisiae expressing SARS-CoV PLpro, growth rescue; control for the full effect not named in the record; Potency, µM (titrated, usually from 32.9 µM), for inactives: at the highest dose activity, positive = growth rescue; 330,000 compounds, 0.19% hits; AID 485353, 2010; active means well fitted rising curve with a large enough effect; inconclusive means small, poorly fitted or top-dose-only effect; inactive means no such curve, though single readings can be large or run the other way; note: 0% is about no effect; nearly all actives have a fitted effect of over 55% in size; growth read by luminescence after 48 h
NS1 inh – qHTS Assay for Inhibitors of Influenza NS1 Protein Function. S. cerevisiae slowed by influenza A NS1, growth recovery by OD600. Potency, µM (highest dose often 46.1 µM), for inactives: top-dose activity, positive = more growth. 270,000 compounds, 0.4% hits. AID 2326, 2010; active means well fitted rising curve with a large enough effect; inconclusive means small, poorly fitted or top-dose-only effect; inactive means no such curve, though single readings can be large or run the other way; note: nearly all actives have a fitted effect of over 50% in size
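Recovery from NS1-induced slow growth read by OD600 in budding yeast switched to galactose assay medium (pH 6.0, -URA) at 1:100 dilution. Compound 23 nl per well; the matching strain lacking NS1 serves as control.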
2A StopGo – High Throughput Screening for Foot and Mouth Disease Virus Antivirals; human cells with a luciferase reporter of 2A StopGo recoding; control for the full effect not named in the record; Potency, µM (titrated, usually from 57.9 µM), without a hit: at the top dose signal change, negative = less light; 410,000 compounds, 1.2% hits; active = well fitted falling curve with a large enough effect; inconclusive = small, poorly fitted or top-dose-only effect; inactive = no such curve, though single readings can be large or run the other way; tested in HEK293T cells; note: % is set by controls: 0 for no effect and ±100 for the full control effect; nearly all actives have a fitted effect of over 45% in size; luciferase light after 4 h
Cruzain noTriton – qHTS Assay for Promiscuous and Specific Inhibitors of Cruzain (without detergent); Cruzipain (Trypanosoma cruzi), P25779; purified cruzain, Z-FR-AMC fluorescence, no detergent; Potency, µM, for inactives: max response, negative = inhibition, actives largely listed as inhibitors; 200,000 compounds, 2.3% hits;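 note: plate controls were enzyme without inhibitor for no effect and buffer without enzyme for full effect; nearly all actives have a fitted effect of over 40% in size; top concentration of the series not given in the record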
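Purified cruzain at 1.5 nM, pre-incubated 15 min with compound at room temperature in 100 mM sodium acetate pH 5.5, 5 mM DTT, 0.00005% Triton X-100. Reaction started with 2 uM Z-FR-AMC; AMC fluorescence increase over 60 s gives rate.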
The depositor's hits bear a star; [ ] = remark or other dose. Unless noted, calls come from the whole dose curve; as a rule, active = well fitted curve in the direction sought with a large enough effect; inconclusive = small, poorly fitted or top-dose-only effect, or another doubt; inactive = no such curve, though single readings can be large; an effect the other way counts as inactive or inconclusive. Potency is the fitted concentration of half-maximal effect.

What do the screens show for `NS(=O)(=O)c1ccc(NC(=O)COC(=O)CSc2n[nH]c(-c3ccccc3)n2)cc1`?
Cruzain inh Det: -3.8%; LASV entry inh: 4%; RE007 growth inh: 7%; Marburg entry inh: -5%; SARS PLpro yeast: 0%; NS1 inh: -3%; Cruzain noTriton: -6%

Results for O=C(Nc1nccs1)c1cc(Cl)ccc1[N+](=O)[O-] ?
Cruzain inh Det: -2.1%; LASV entry inh: 18%; RE007 growth inh: -3%; Marburg entry inh: 30%; SARS PLpro yeast: 16%; NS1 inh: 4%; 2A StopGo: -15%; Cruzain noTriton: -10%

How did COCCn1c(SCc2ccc(C(=O)OC)o2)nnc1-c1c[nH]c2ccccc12 do in these assays?
Cruzain inh Det: 0.6%; RE007 growth inh: 9%; SARS PLpro yeast: 0%; NS1 inh: 6%; 2A StopGo: -23%; Cruzain noTriton: 6%

How did Cc1ccc(/C=N/NC(=O)NN(C)c2ncc(C(F)(F)F)cc2Cl)cc1 do in these assays?
LASV entry inh: inconclusive; RE007 growth inh: 12%; Marburg entry inh: inconclusive; SARS PLpro yeast: -1%; NS1 inh: -2%; 2A StopGo: -28%

Results for O=C1c2oc3ccc(Cl)cc3c(=O)c2C(c2cccc(Br)c2)N1CCO (stereo unspecified) ?
Cruzain inh Det: -8.1%; LASV entry inh: 1%; RE007 growth inh: -1%; Marburg entry inh: -13%; SARS PLpro yeast: -1%; NS1 inh: -26%; 2A StopGo: -9%; Cruzain noTriton: inconclusive

Results for CCC(C)Sc1nc2c(c(=O)[nH]c(=O)n2C)n1CC(O)COc1ccccc1C (stereo unspecified) ?
Cruzain inh Det: -11%; LASV entry inh: inconclusive; RE007 growth inh: -1%; Marburg entry inh: inconclusive; SARS PLpro yeast: 5%; NS1 inh: 27%; 2A StopGo: -12%; Cruzain noTriton: inconclusive

Results for CCOC(=O)C1=C(C)N(C)C(=S)N(C)C1c1ccc(OC)cc1 (stereo unspecified) ?
LASV entry inh: 0%; RE007 growth inh: 24%; Marburg entry inh: 12%[46.1 µM]; SARS PLpro yeast: -4%; NS1 inh: -1%; 2A StopGo: 3%

What do the screens show for `Cc1cc(C)nc(N2CCN(c3ccc(F)cc3)CC2)n1`?
RE007 growth inh: -16%; SARS PLpro yeast: -2%; NS1 inh: -5%; 2A StopGo: 24%

What do the screens show for `CC(=O)Nc1ccc(Nc2ncnc3c2c(-c2ccccc2)cn3-c2ccc(C)c(Cl)c2)cc1`?
Cruzain inh Det: 0.6%; LASV entry inh: -25%[46.1 µM]; 2A StopGo: inconclusive; Cruzain noTriton: 22%

What do the screens show for `O=C(NNC(=O)C1CCC1)c1ccc(Cl)cc1`?
RE007 growth inh: 2%; SARS PLpro yeast: -1%; NS1 inh: 18%; 2A StopGo: 14%

How did COc1ccccc1CNC(=O)CC1Sc2ccccc2NC1=O (stereo unspecified) do in these assays?
RE007 growth inh: -12%; Marburg entry inh: -11%[46.1 µM]; SARS PLpro yeast: -7%; 2A StopGo: -2%

How did O=C(O)c1cc(-c2ccc3c(c2)OCCO3)n[nH]1 do in these assays?
LASV entry inh: 6%; RE007 growth inh: 2%; Marburg entry inh: inconclusive; SARS PLpro yeast: 0%; NS1 inh: 0%; 2A StopGo: -10%

What do the screens show for `CC1(C)NC(=O)N(CC(O)CN2C(=O)NC(C)(C)C2=O)C1=O`?
Cruzain inh Det: 1.8%; LASV entry inh: 12%; RE007 growth inh: -6%; Marburg entry inh: -2%; SARS PLpro yeast: 5%; NS1 inh: 3%; 2A StopGo: -9%; Cruzain noTriton: -15%

What do the screens show for `Cc1ccc(S(=O)(=O)CC(=O)NCc2ccc(Cl)cc2)cc1`?
LASV entry inh: -1%; RE007 growth inh: 7%; Marburg entry inh: -24%; SARS PLpro yeast: -4%; 2A StopGo: -4%

How did Cc1ccc(-c2nnc(NC3CCCC3)s2)cc1 do in these assays?
LASV entry inh: inconclusive; RE007 growth inh: -21%; Marburg entry inh: inconclusive; SARS PLpro yeast: -2%; NS1 inh: -2%; 2A StopGo: 23%

Results for O=[N+]([O-])c1cc(C(F)(F)F)ccc1NCCOc1ccccc1 ?
Cruzain inh Det: -8.3%; LASV entry inh: inconclusive; RE007 growth inh: -11%; Marburg entry inh: inconclusive; SARS PLpro yeast: -4%; NS1 inh: -7%; 2A StopGo: 29%; Cruzain noTriton: 0%

How did COc1ccc(Cc2nc3ccc(C(=O)N4CCN(C)C(C)C4)cc3o2)cc1OC (stereo unspecified) do in these assays?
LASV entry inh: inconclusive; RE007 growth inh: 1%; Marburg entry inh: inconclusive; SARS PLpro yeast: -2%; NS1 inh: -5%; 2A StopGo: inconclusive

How did CCC(C)(C)n1nnnc1C(c1cc2ccc(OC)cc2[nH]c1=O)N1CCCCC1 (stereo unspecified) do in these assays?
Cruzain inh Det: -18%; LASV entry inh: 8%; RE007 growth inh: -3%; Marburg entry inh: inconclusive; SARS PLpro yeast: 10%; NS1 inh: -3%; 2A StopGo: 48%[activator]; Cruzain noTriton: -9%

How did COc1ccc(Br)cc1C(=O)Nc1ccc(-c2nc3ncccc3o2)cc1C do in these assays?
Cruzain inh Det: -1.4%; LASV entry inh: -2%[46.1 µM]; Marburg entry inh: inconclusive; 2A StopGo: 6%; Cruzain noTriton: -7%

What do the screens show for `Cc1cc(C)n2nc3nc(N4CCCCC4)nc(-c4ccco4)c3c2n1`?
Cruzain inh Det: -11%; LASV entry inh: 4%; RE007 growth inh: 9%; Marburg entry inh: -4%; SARS PLpro yeast: -1%; NS1 inh: inconclusive; 2A StopGo: 0%; Cruzain noTriton: inconclusive

How did CC(=O)n1c2ccccc2c2nc3ccccc3nc21 do in these assays?
RE007 growth inh: -11%; SARS PLpro yeast: 1%; NS1 inh: 5%; 2A StopGo: 72%[activator]

Results for CN(C)c1ccc(-c2ccc3c(=O)c4ccccc4n(C)c3c2)cn1 ?
RE007 growth inh: -17%; SARS PLpro yeast: -4%; NS1 inh: -42%; 2A StopGo: 46%[activator]

What do the screens show for `COc1cc(OC)cc(C(=O)N[C@H](C(=O)OCC(=O)Nc2cccc(F)c2)C(C)C)c1`?
Cruzain inh Det: -19%; LASV entry inh: -13%; RE007 growth inh: -2%; Marburg entry inh: -14%; SARS PLpro yeast: 3.5µM*; NS1 inh: -46%; 2A StopGo: inconclusive; Cruzain noTriton: -13%

How did Cc1ccc(C)c(S(=O)(=O)N2CCN(C(=O)c3ccc(N4CCCC4)c([N+](=O)[O-])c3)CC2)c1 do in these assays?
LASV entry inh: -16%[46.1 µM]; RE007 growth inh: 13%; Marburg entry inh: -11%[46.1 µM]; SARS PLpro yeast: -6%; NS1 inh: 12%; 2A StopGo: -21%

Results for COc1ccc(/C=C(\NC(=O)c2ccc(C)cc2)C(=O)N2CCCCC2)cc1 ?
RE007 growth inh: 2%; SARS PLpro yeast: 1%; NS1 inh: 1%; 2A StopGo: 45%[activator]

How did CN(CC(O)Cn1c2ccccc2c2ccccc21)S(C)(=O)=O (stereo unspecified) do in these assays?
RE007 growth inh: 9%; SARS PLpro yeast: -1%; NS1 inh: 0%; 2A StopGo: -17%

How did Cc1occc1-c1nnc(SCC(=O)Nc2ccccc2-c2ccccc2)n1C do in these assays?
Cruzain inh Det: 3.5%; LASV entry inh: -20%; RE007 growth inh: 2%; Marburg entry inh: -19%; SARS PLpro yeast: 4%; NS1 inh: -4%; 2A StopGo: -20%; Cruzain noTriton: 1%

How did COc1cccc(-c2cc(C(=O)Nc3ccc4c(c3)OCCO4)c3ccccc3n2)c1 do in these assays?
Cruzain inh Det: -7.3%; Marburg entry inh: 0%; SARS PLpro yeast: 5%; NS1 inh: 12%; Cruzain noTriton: inconclusive

What do the screens show for `Cc1ccc(NC(=O)CCN2C(=O)C3C4CCC(C4)C3C2=O)cc1[N+](=O)[O-]` (stereo unspecified)?
LASV entry inh: 6%; RE007 growth inh: 9%; Marburg entry inh: 11%; SARS PLpro yeast: 0%; NS1 inh: 0%; 2A StopGo: 15%

Results for COc1ccc2[nH]c3c(c2c1)CCN1C(=O)N([C@@H](C)C(=O)NCc2ccc(F)cc2)C(=O)[C@]31C ?
RE007 growth inh: 9%; SARS PLpro yeast: -7%; NS1 inh: 3%; 2A StopGo: -28%

Results for CCCCn1c(=O)c(C(=O)NCc2ccc(Cl)cc2)c(O)c2ccccc21 ?
LASV entry inh: -25%[46.1 µM]; RE007 growth inh: 20%; Marburg entry inh: inconclusive; SARS PLpro yeast: -2%; NS1 inh: 11%; 2A StopGo: -23%

What do the screens show for `CC(Oc1ccc(Cl)cc1Cl)C(=O)NNC(=O)[C@@H]1CCCC[C@@H]1C(=O)O` (stereo partly specified)?
RE007 growth inh: -1%; SARS PLpro yeast: 0%; NS1 inh: -7%; 2A StopGo: -10%

How did Cc1ccc(Nc2c3c(nc4nncn24)CCC3)cc1C do in these assays?
Cruzain inh Det: 0.7%; LASV entry inh: -10%[46.1 µM]; Marburg entry inh: 5%[46.1 µM]; 2A StopGo: -27%; Cruzain noTriton: 4%

What do the screens show for `OC1(c2ccccc2)CCN(Cc2ccccc2)C2CCCCC21` (stereo unspecified)?
Cruzain inh Det: 1.5%; LASV entry inh: inconclusive; Marburg entry inh: 8.9µM*; SARS PLpro yeast: -15%; NS1 inh: -7%; 2A StopGo: -28%; Cruzain noTriton: 12%

Results for CC1(C)C(=O)N(CC(=O)Nc2cccc(F)c2)c2ccc(S(=O)(=O)N3CCCCC3)cc21 ?
Cruzain inh Det: -5.6%; LASV entry inh: -26%[46.1 µM]; 2A StopGo: 34%[activator]; Cruzain noTriton: 9%

Results for Cc1nc(NC(=O)CSc2nnc(C3CC3)n2C)sc1C ?
RE007 growth inh: -12%; Marburg entry inh: -13%[46.1 µM]; SARS PLpro yeast: -1%; NS1 inh: 9%; 2A StopGo: 49%[activator]

Bioassay records as filed in PubChem BioAssay.
